# CDC25B-CDK2 inh = human CDC25B-CDK2/CyclinA binding inhibition; P30305+P24941; HTRF CDC25B-CDK2/CyclinA binding, anti-His/anti-Flag; stronger effect = higher value; z-score (concentration not given with the values); actives 0.72% (n = 94,000); AID 1259370;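 also: score is relative to mean and SD of negative controls; strong numbers were not always called active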
# TAR Tat displ = HIV-1 TAR-Tat binding disruption | HIV-1 TAR RNA, Tat peptide displacement FRET; stronger effect = higher value | AID 1259389 | z-score (no concentration beside the values) | actives 0.6% (n = 100,000);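 also: score is relative to mean and SD of negative controls; some compounds called inactive have numbers as strong as hits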
# Starred values were filed as active, the others as inactive; x = not tested or not shown.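 The calls were made as follows: active = z-score from 3 up in half or more of its runs; inactive = the rest.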
SMILES,CDC25B-CDK2 inh,TAR Tat displ
CN1C(=O)c2cc(C(=O)NCCN3CCCC3)nn2CC1(C)C(=O)NC1CCCCC1 (configuration not stated),x,-0.74
NNC(=O)CNS(=O)(=O)c1cccc2nsnc12,-0.69,x
COCCOC(=O)c1c(C)oc2ccc(OCC(=O)c3ccccc3)cc12,-2.7,-0.74
CCN1C(=O)c2cccc3c(S(=O)(=O)NC(Cc4ccccc4)C(=O)O)ccc1c23 (configuration not stated),-0.79,1.1
COc1ccc(Oc2coc3cc(OC(=O)c4ccc(F)cc4)ccc3c2=O)cc1,-1.3,0.19
CC(C)(C)OC(=O)C(=O)N1N=C(C2CCCCC2)CC1(O)C(F)(F)F (configuration not stated),-2.8,x
Fc1ccc(-n2cc(-c3ccc4c(c3)OCO4)[nH]c2=S)c(F)c1,-2.4,x
O=C(Nc1cccnc1)c1cc2nc(-c3ccc(Br)cc3)cc(C(F)(F)F)n2n1,-3.4,-0.11
CN(C)S(=O)(=O)c1cccc(C(=O)NC2CCS(=O)(=O)C2)c1 (configuration not stated),x,1.1
CN(C)CCNC(=O)c1ccc(N2CCCc3ccccc32)s1,x,1.7
CCOc1ccccc1N(CC)C(=O)c1noc2c1CSc1ccccc1-2,-0.78,0.25
COc1ccc(-c2nc3ncccn3c2NCc2ccc(Cl)cc2)cc1OC,x,-1.1
O=C(c1c2c(nc3ccccc13)C(=O)N(C1CCCCC1)C2)N1CCN(c2ccccc2F)CC1,x,-0.27
CO[C@@H]1O[C@H](COC(C)=O)[C@H](OC(C)=O)[C@H](OC(C)=O)[C@H]1OC(C)=O,-0.02,x
CC1CC(C)CN(CCCNC(=O)C2CCN(S(=O)(=O)c3ccc4c(c3)oc(=O)n4C)CC2)C1 (configuration not stated),-2.5,1.4
COc1cccc(C2CC(=O)N3CN(c4ccccc4F)CSC3=C2C#N)c1OC (configuration not stated),4.2*,-0.9
COc1ccc(C2CC(=O)C=C(NC3Cc4ccccc4C3)C2)cc1OC (configuration not stated),-0.46,-0.24
CC(=O)Nc1c2n(c3ccccc13)CC(C)(C(=O)NC1CCCCC1)N(C1CCCCC1)C2=O (configuration not stated),x,1.1
Cc1c(C(=O)O)oc2c1-c1c(cnn1Cc1ccccc1)CC2,0.19,0.77
CCCCOc1cccc(C2c3c(oc4ccccc4c3=O)C(=O)N2c2nnc(C)s2)c1 (configuration not stated),-0.01,0.97
O=C(Nc1cccnc1)c1c(O)c2c([nH]c1=O)CCCC2,x,1.9
COc1ccc(-c2c3c(=O)n(C)c(=O)n(C)c3c3n2C(C)(C)COC3c2ccc(O)cc2O)cc1 (configuration not stated),-1.6,0.67
O=C(CSc1nc2ccccc2c(=O)[nH]1)N1CCN(c2ccccc2F)CC1,x,2.2
Cc1ccccc1C(=O)OCc1cc(=O)n2c3c(sc2n1)CCCC3,x,-0.75
CN1C(=O)C(C)(C)c2cc(S(=O)(=O)N3CCN(c4ncccn4)CC3)ccc21,x,0.03
# The list goes on:
SMILES,CDC25B-CDK2 inh,TAR Tat displ
O=c1ccc2cc(O)c(O)cc2o1,x,25*
COCCCNc1nc2c(-c3ccc(C)cc3)nnn2c2ccccc12,-0.51,0.43
CC1CC(C)CN(S(=O)(=O)c2cc(Br)cc3c2N(C(=O)C2CC2)CC3)C1 (configuration not stated),-1.3,x
CCCc1[nH]nc2c1C(c1ccc(OC(=O)N3CCOCC3)cc1)C(C#N)=C(N)O2 (configuration not stated),0.82,2.5
Cc1nc2c(-c3ccccc3)noc2c(=O)n1CC(=O)O,-0.66,0.58
Cc1c(O)nc2ccccn2c1=O,-1.9,x
OCc1c[nH]c2ccccc12,x,-0.02
CC(C)OCCCNc1ncnc2c1nc1n2CCCCC1,x,0.12
O=c1c(N2CCN(c3ccc(F)cc3)CC2)csc2ccc(Br)cc12,x,-0.39
O=C(CC1=NS(=O)(=O)c2ccccc2N1)N1CCN(c2ccc(F)cc2)CC1,x,0.25
O=C(Cc1noc2ccccc12)Nc1ccc(F)cc1Cl,-1.6,2.6
CC(C)(C)C(=O)Cn1c(=O)n(CCCC(=O)NCc2ccc3c(c2)OCO3)c(=O)c2sccc21,-1.6,2.2
Cc1ccc(CN(C(=O)c2cc(=O)c3cc(F)ccc3o2)c2ccccn2)o1,-1.2,1.9
O=C1c2ccccc2-c2n[nH]c(=O)c3ccc(N4CCCC4)c1c23,-0.44,-2.2
COC(=O)Cn1ncc2c3ccccc3n(Cc3ccc(F)cc3)c2c1=O,-7.9,0.05
Cc1cc(NC(=O)CSc2nc(CC(C)C)nc3c2c(=O)n(C)c(=O)n3C)no1,x,0.19
O=c1c2cccnc2[nH]c(=S)n1Cc1ccccc1,-3.1,x
CC1C/C(=N\NC(N)=S)c2cc(Cl)ccc2S1 (configuration not stated),0.85,x
O=C(O)Cn1c(SCCOc2ccccc2)nc2ccccc21,0.76,1.3
S=C(SCc1cc(Cl)cc2c1OCOC2)N1CCSCC1,-1.4,x
O=C1CC(N2CCN(c3ccc(O)cc3)CC2)C(=O)N1c1ccccc1 (configuration not stated),-0.88,1.3
CNC(=O)NC1CCCCc2sccc21 (configuration not stated),-1.3,0.46
Cn1c2c(c(=O)n(C)c1=O)C(c1cccc(Br)c1)CC(=O)N2 (configuration not stated),-1.7,-0.36
CCC(C)NS(=O)(=O)c1ccc2c(c1)NC(=O)CS2 (configuration not stated),x,2.5
COc1cc(Cl)c(C)cc1NC1=NS(=O)(=O)C(c2ccccc2)=C1C,-5.5,0.18

# Entries above with a COOH group:
SMILES,CDC25B-CDK2 inh,TAR Tat displ
CCN1C(=O)c2cccc3c(S(=O)(=O)NC(Cc4ccccc4)C(=O)O)ccc1c23 (configuration not stated),-0.79,1.1
Cc1c(C(=O)O)oc2c1-c1c(cnn1Cc1ccccc1)CC2,0.19,0.77
Cc1nc2c(-c3ccccc3)noc2c(=O)n1CC(=O)O,-0.66,0.58
O=C(O)Cn1c(SCCOc2ccccc2)nc2ccccc21,0.76,1.3

# Five structures out of the list, arranged by molar mass, low to high:
SMILES,CDC25B-CDK2 inh,TAR Tat displ
O=C(Cc1noc2ccccc12)Nc1ccc(F)cc1Cl,-1.6,2.6
O=C(O)Cn1c(SCCOc2ccccc2)nc2ccccc21,0.76,1.3
COCCCNc1nc2c(-c3ccc(C)cc3)nnn2c2ccccc12,-0.51,0.43
S=C(SCc1cc(Cl)cc2c1OCOC2)N1CCSCC1,-1.4,x
O=C(CC1=NS(=O)(=O)c2ccccc2N1)N1CCN(c2ccc(F)cc2)CC1,x,0.25

# Next part:
SMILES,CDC25B-CDK2 inh,TAR Tat displ
CC1=C(C(=O)Nc2ccccc2)C(c2ccccc2)C2=C(N1)c1ccccc1C2=O (configuration not stated),0.79,x
Cn1c(=O)n(C)c2cc(N3CCCC3)c(NC(=O)c3sc4ccccc4c3Cl)cc21,-1.6,0.36
Cc1cc(Br)cc(Cl)c1OC(=O)c1ccno1,0.7,x
Cn1c(=O)c2sccc2n2c(CCCC(=O)N3CCN(Cc4ccc5c(c4)OCO5)CC3)nnc12,x,-0.79
Cc1cc(N2CCc3ccccc3C2)nc(-n2cc([N+](=O)[O-])cn2)n1,x,1.2
CCOC(=O)c1cc(S(=O)(=O)NCc2ccc3c(c2)OCO3)cn1C,0.43,1.6
COC(=O)C1=C(C)NC2=C(C(=O)c3ccccc32)C1c1ccc(O)c(Cl)c1 (configuration not stated),-0.99,0.61
CCCn1c(=O)c(C#N)cn(C2CC2)c1=O,0.29,x
CCN1CCN(CCNC(=O)C2=C(C)C(=O)OC23CCCCC3)CC1,-1.8,-1.5
COc1cccc(NS(=O)(=O)c2ccc(-c3cnc(C4CC4)o3)cc2)c1,x,1.5
CCc1nn(CCCC(=O)NCc2ccco2)c(=O)c2cc3occc3n12,-1.1,1.3
CCOC(=O)c1cnc(N2CCCC2)nc1C,-1.6,0.83
O=C(CN1CCN(Cc2ccc3c(c2)OCO3)CC1)N1c2ccccc2Sc2ccccc21,-1.9,1.8
Cc1ncc(-c2ccc(C)c(S(=O)(=O)N(C)Cc3ccccc3)c2)o1,x,-0.07
CCCC(=O)OCc1cc(=O)n2c3c(sc2n1)CCCC3,x,1.2
CC(C)NC(=O)CCCc1nnc2n3nc(-c4ccccc4)nc3c3ccccc3n12,-0.43,4.2
Cc1sc2ncnc(Oc3ccc(Br)cc3)c2c1C,-0.69,1.3
O=C(C1CCCCC1)N1CCc2cc3ccccc3nc21,-0.89,0.84
O=C(CSc1nnc(CNC(=O)c2cccs2)n1-c1ccc(F)cc1)Nc1ccc(F)cc1,-1.4,x
COC(=O)c1sccc1S(=O)(=O)N1CCc2ccccc2C1,x,0.56
CCC12CN3CC(C)(CN(C1)C3c1ccccc1C)C2=O (configuration not stated),-0.98,-0.51
Cn1cc(C(=O)NCCCSC2CCCCC2)c(=O)c2cc(S(=O)(=O)N3CCCC3)ccc21,-0.28,0.6
CCOc1cc(C2C=C(C(=O)O)Nc3ncnn32)cc(Br)c1O (configuration not stated),-0.96,0.86
O=C(NCCC1=CCCCC1)c1cnc(N2CCOCC2)nc1,x,1.2
Cc1ccc2[nH]c(C)c(CN3CCOCC3)c(=O)c2c1,-1.2,-1.6

# Looked up by structure from above, five records:
SMILES,CDC25B-CDK2 inh,TAR Tat displ
CCOC(=O)c1cnc(N2CCCC2)nc1C,-1.6,0.83
Cc1cc(N2CCc3ccccc3C2)nc(-n2cc([N+](=O)[O-])cn2)n1,x,1.2
COC(=O)C1=C(C)NC2=C(C(=O)c3ccccc32)C1c1ccc(O)c(Cl)c1 (configuration not stated),-0.99,0.61
Cc1ccc2[nH]c(C)c(CN3CCOCC3)c(=O)c2c1,-1.2,-1.6
CCOc1cc(C2C=C(C(=O)O)Nc3ncnn32)cc(Br)c1O (configuration not stated),-0.96,0.86

# Rewritten as tab-separated lines: part of the list above.
mol	CDC25B-CDK2 inh	TAR Tat displ
Cc1ncc(-c2ccc(C)c(S(=O)(=O)N(C)Cc3ccccc3)c2)o1	x	-0.07
CCCC(=O)OCc1cc(=O)n2c3c(sc2n1)CCCC3	x	1.2
CC(C)NC(=O)CCCc1nnc2n3nc(-c4ccccc4)nc3c3ccccc3n12	-0.43	4.2

# (cont.)
SMILES,CDC25B-CDK2 inh,TAR Tat displ
O=C(Cn1cc2c(n1)CCCCC2)NC1CCCc2ccccc21 (configuration not stated),-0.29,x
CN(C)CCCN(C(=O)c1ccccc1Br)c1nc2c(F)cccc2s1,x,0.85
COC(=O)c1csc(S(=O)(=O)NC2CCCCNC2=O)c1OC (configuration not stated),-1.1,x
CS(=O)(=O)N1CCCc2ccccc21,-0.34,x
COc1ccccc1CNc1ccc2c(c1)ncn2-c1ccccc1OC,-2.9,x
CC(=O)NC(=O)/C(C#N)=C/N1CCN(c2ccccc2)CC1,-1.2,x
FC(F)(F)Oc1ccc(NC(=S)Nc2ccccc2N2CCOCC2)cc1,-2.1,x
COC(=O)c1ccc(-c2cc(C(=O)O)c3c(-c4ccc(OC)cc4)[nH]nc3n2)cc1,x,0.84
Cc1cc2n(n1)CCC(=O)N2CC(=O)NCCCN1CCCCC1,x,2
COc1ccc2c(c1)CCc1c-2n[nH]c1C(=O)N1CCCC1,x,0.93
O=S(=O)(c1cccc(Cl)c1)N1CCC(c2ccncc2)CC1,x,0.28
Cc1ccc(OCc2ccc(-c3nc(C#N)c(NCCCN(C)C)o3)o2)cc1,-0.69,0.04
CCOC(=O)c1c(C)oc(C)c1S(=O)(=O)Nc1ccc(Cl)cc1,-1.6,x
CC(C)(C)NC(=O)CN1c2ccc(Br)cc2-c2ccccc2S1(=O)=O,-1.3,0.76
Cc1ccc2nc3c(c(N)c2c1)CCN3c1ccccc1,-0.59,-2
CN(C(=O)COc1ccc(F)cc1)C(c1cccs1)c1c[nH]c2ccccc12 (configuration not stated),1.1,-0.41
O=C(Nc1cccc(Br)c1)c1cc(-c2ccccn2)n[nH]1,x,2.5
CCCN1C(C(=O)c2ccccc2)=C(OC(=O)CN2C(=O)CCC2=O)c2ccccc2S1(=O)=O,0.64,0.96
O=C(NCc1ccc(F)cc1)c1cnc2sc3c(n2c1=O)CCCC3,x,0.89
CCCCCOC(=O)COc1ccc2c(=O)c(Oc3cccc(C)c3)coc2c1,-0.73,1.9
COc1cc(NC(=O)Nc2nc3ccc(S(C)(=O)=O)cc3s2)cc(OC)c1,-2.4,-0.81
CC(=O)N1c2ccc(S(=O)(=O)NCc3ccc4c(c3)CCN4C(=O)CC(C)C)cc2CC1C (configuration not stated),x,1.6
S=C(Nc1ccc(C2CCCCC2)cc1)N1CCSCC1,-2.6,x
O=C(CN1N=NC2C(=O)N(c3ccc(Cl)cc3)C(=O)C21)Nc1ccccc1F (configuration not stated),x,-0.83
O=C(c1cccs1)N1CCCc2cc(NS(=O)(=O)c3ccc(Br)cc3)ccc21,x,1.7
# Next section.
SMILES,CDC25B-CDK2 inh,TAR Tat displ
CCc1ccc(C2CC(=O)N3CN(c4ccccc4)CSC3=C2C#N)cc1 (configuration not stated),4.5*,-1.2
CSc1cccc(NC(=O)CCS(=O)(=O)c2cccc3nsnc23)c1,-1.3,-0.18
O=S(=O)(c1ccc(-c2ccc(S(=O)(=O)N3CCCCC3)cc2)cc1)N1CCCCC1,0.79,x
COc1ccc(Br)cc1CN1CCN(Cc2cccnc2)CC1,-0.95,-1.2
CC(C)C(=O)N(c1cccc(Cl)c1)C1C=CS(=O)(=O)C1 (configuration not stated),-0.74,1.3
Cn1c(SCc2ccc(F)cc2)nc2ccc(C(=O)N3CCN(C(=O)c4ccco4)CC3)cc21,x,3.1
Cc1c(C(=O)NC2CCCC2)oc2ccc(S(=O)(=O)N3CCC(C)CC3)cc12,-0.8,x
CCc1ccc(-n2nnc(S(=O)(=O)c3ccc(C)cc3)c2C)cc1,-1.1,-0.95
CC(C)OCCCNC(=O)C1c2c(n(C)c3ccccc23)SCC(=O)N1CCc1ccsc1 (configuration not stated),x,2.4
CC1CCCC(NC(=O)C(C)n2sc3ccccc3c2=O)C1C (configuration not stated),-1.6,1.7
O=C(Nc1ccccc1SCc1cc(=O)n2nc(C3CCCCC3)sc2n1)c1ccco1,x,0.13
COc1cc(NC(c2ccc(F)cc2)c2nnc(-c3ccccc3)o2)cc(OC)c1 (configuration not stated),x,0.55
Clc1ccc(-c2noc3ncnc(NCCN4CCOCC4)c23)cc1,-0.54,1.6
